Source: PubChem
CtBP-E1A inh = blocks the CtBP interaction with E1A; AID 651724; 340,000 tested, 0.49% active; AlphaScreen GST-E1A/His-CtBP binding, 1536-well; hits give low values; control for the full effect not named in the record; activity change, % (no concentration beside the values); in the data active means activity change below about -65%; inconclusive means about -30% to -65%; inactive means above about -30%; note: % is set by controls: 0 for no effect and ±100 for the full control effect; compound concentration not given in the record
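GST-E1A and His-tagged CtBP (125 nM each as 5X stock) were preincubated with pin-transferred compound for 2 h at 37 °C in the dark, then glutathione donor and nickel acceptor beads were added for 1 h before AlphaScreen reading.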
D2 agonist = human D2 receptor agonism in beta-arrestin assay; DiscoveRx PathHunter D2 beta-arrestin, luminescence, 90 min; 100% = 57 uM dopamine signal; activation, % (test concentration not listed); 360,000 tested, 0.084% active; AID 624465; in the data active = activation above about 40%; inconclusive = about 15% to 40%; inactive = below about 15%; note: compound concentration not given in the record; the text of the record calls up to 30% inactive
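Agonist mode: compounds alone added to overnight-plated D2 PathHunter cells for 90 min at 37 C, with 57 uM final dopamine (EC100) defining full response. Beta-arrestin recruitment detected by chemiluminescent reagent, read after 1 h at ambient temperature.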
TRPML1 blocker = inhibitors of human TRPML1 channel. Q9GZU1. TRPML1-inducible cells, Ca2+ dye fluorescence, FDSS; hits give low values; inhibition of EC80 agonist-evoked calcium signal. activity change, negative = inhibition, % (test concentration not listed). 390,000 tested, 0.02% active. AID 624415; in the data active means activity change below about -50%; inconclusive means about -30% to -50%; inactive means above about -30%;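 note: stimulus is agonist 54-4 at its EC80 concentration; % is set by controls: 0 for no effect and ±100 for the full control effect; compound concentration not given in the record; the text of the record puts the active cut at -80%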
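TRPML1-DL cells, Tet-induced overnight (~16 h, 37 °C) at 1,500 cells/well, were loaded with Ca8 no-wash dye plus quencher for 45-90 min at room temperature. Compounds were pinned during FDSS kinetic reading; agonist 54-4 at EC80 (4 uM final) then added.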
TRPML1 agonist = activates the human TRPML1 channel | Q9GZU1 | TRPML1-expressing cells, Ca2+ dye fluorescence, FDSS; host cell line not named in the record; reference of the full effect not given here | activation, % (test concentration not listed) | 410,000 tested, 0.12% active; in the data active = activation above about 50%; inconclusive = about 30% to 50%; inactive = below about 30%; note: 0% is about no effect; the text of the record puts the active cut at 80%
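Cells: TRPML1-DL, 1X Tet inducer, ~16 h at 37 degrees C/5% CO2. Dye: ABD Ca8 no-wash + quencher, 45-90 min RT. Read: 10 s baseline, compound add, 110 s agonist phase; 54-4 EC80 (4uM final), 110 s antagonist phase.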
Six1-Eya2 inh = Six1/Eya2 interaction inhibition | Q15475+O00167 | AlphaScreen GST-Six1/His-Eya2 binding, biochemical; hits give low values; control for the full effect not named in the record | activity change, % (no concentration beside the values) | 360,000 tested, 0.56% active; in the data active = activity change below about -65%; inconclusive = about -30% to -65%; inactive = above about -30%; note: % is set by controls: 0 for no effect and ±100 for the full control effect; compound concentration not given in the record
Target sequence (O00167 whole entry, looked up): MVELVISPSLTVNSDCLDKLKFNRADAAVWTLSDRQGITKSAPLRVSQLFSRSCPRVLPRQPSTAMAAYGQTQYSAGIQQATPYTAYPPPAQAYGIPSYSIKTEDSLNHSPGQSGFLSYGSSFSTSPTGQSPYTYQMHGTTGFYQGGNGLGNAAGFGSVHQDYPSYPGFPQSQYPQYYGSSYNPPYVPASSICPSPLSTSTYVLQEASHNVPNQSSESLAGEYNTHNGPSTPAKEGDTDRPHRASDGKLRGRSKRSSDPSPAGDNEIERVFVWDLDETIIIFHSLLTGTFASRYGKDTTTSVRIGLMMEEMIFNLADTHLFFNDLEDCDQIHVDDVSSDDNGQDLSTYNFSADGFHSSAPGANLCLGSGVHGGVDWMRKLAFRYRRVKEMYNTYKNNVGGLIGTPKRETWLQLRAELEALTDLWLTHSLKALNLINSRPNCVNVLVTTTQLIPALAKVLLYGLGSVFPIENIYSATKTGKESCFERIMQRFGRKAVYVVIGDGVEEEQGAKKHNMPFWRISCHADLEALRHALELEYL
Target sequence (Q15475 whole entry, looked up): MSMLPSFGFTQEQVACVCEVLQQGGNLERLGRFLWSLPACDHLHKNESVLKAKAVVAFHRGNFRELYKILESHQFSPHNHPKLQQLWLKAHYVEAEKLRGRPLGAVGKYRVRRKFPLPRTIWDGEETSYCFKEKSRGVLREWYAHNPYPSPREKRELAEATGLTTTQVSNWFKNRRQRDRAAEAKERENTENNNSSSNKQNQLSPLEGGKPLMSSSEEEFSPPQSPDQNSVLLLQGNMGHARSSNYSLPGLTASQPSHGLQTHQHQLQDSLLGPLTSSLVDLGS
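AlphaScreen with GST-Six1 and His-Eya2 (5X mix: 250 nM and 500 nM), glutathione donor and nickel acceptor beads; buffer 50 mM Tris pH 8.0, 300 mM NaCl, 1 mM TCEP; 1 h at 37 C in the dark.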
PINK1 expr mod = changes PINK1 expression. Potency, µM (highest dose often 76.6 µM), inactives show at the top dose activation (PINK1 increase), actives largely listed as activators. PINK1 immunofluorescence, high-content cytometry, 24 h. 410,000 tested, 0.2% active. AID 624263; active = well fitted activation curve with a large enough effect; inconclusive = small, poorly fitted or top-dose-only effect; inactive = flat fitted curve, though single readings scatter; cell line not stated here;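 note: potency is the fitted concentration of half-maximal effect; % of control where 0% means no effect; nearly all actives have a fitted effect of over 65% in size; a mitochondrial uncoupler was the plate control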
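A stable cell line was treated with compounds at 5 concentrations for 24 hours, with CCCP as control. PINK1 levels and mitochondrial localization were measured by immunofluorescence with mitochondrial, cell and nuclear markers after fixation, read by laser-scanning cytometry.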
* = called active by the depositor; ? = inconclusive; nt = no result given; & = joins results of further samples; [ ] = remark or other dose. Rows are unselected, and some 1% of all compounds hit somewhere here.

no.	SMILES	TRPML1 agonist	Six1-Eya2 inh	D2 agonist	PINK1 expr mod	CtBP-E1A inh	TRPML1 blocker
1	CCC(C)n1c(=N)c(C(=O)NCc2ccco2)cc2c(=O)n3cc(C)ccc3nc21 (stereo unspecified)	3.8	nt	nt	1.5%	nt	8
2	CCOC(=O)N1CCN(S(=O)(=O)c2cc(OCC(=O)NC3CCCCC3)c(C)cc2Cl)CC1	0.4	-14	0.3	nt	-1	6
3	CCc1sc(C(=O)Nc2cccnc2)cc1Br	0.3	-3	-1.5	-1.3%	-7	2
4	COc1ccc(S(=O)(=O)N2CCC(C(=O)NCCC(=O)Nc3cccc(OC)c3)CC2)cc1	-0.4	0	0.7	-0.6%	-2	10
5	Cc1nn(C)c(C)c1NS(=O)(=O)c1cccc(Br)c1	0.0	9	-7.5	0.3%	6	26
6	Cc1ccccc1S(=O)(=O)NNC(=O)C(=O)NNc1ccccn1	-0.6	-82*	0.4	0.5%	-71*	30
7	Cc1cccn2c(=O)c(C(=O)NC3CC(C)CC(C)(C)C3)c(O)nc12 (stereo unspecified)	0.5	1	-5.2	?	3	3
8	O=C(NCCO)c1cccc(Cl)c1	0.0	0	-4.6	-1.4%	3	-8
9	COc1cccc(NC(=O)CN(C)S(=O)(=O)c2ccc3nc(C)sc3c2)c1	0.2	nt	nt	0.2%	nt	-10
10	COc1cc(C(=O)NNC(=O)c2cccn2C)cc(OC)c1OC	-0.2	-8	-0.6	0.4%	-2	-6
11	COc1ccc(NC(=O)c2cc(S(=O)(=O)N3CCOCC3)cn2C)c(OC)c1	-0.7	4	2.0	0.7%	-1	-11
12	COc1cc(C)nc(N2CCCC(C(=O)NCC(C)C)C2)n1 (stereo unspecified)	-0.4	7	-3.1	-0.6%	9	-5

no.	SMILES	TRPML1 agonist	Six1-Eya2 inh	D2 agonist	PINK1 expr mod	CtBP-E1A inh	TRPML1 blocker
13	COc1ccc(NC(=O)[C@@H]2CC=C[C@@H]3CCN(Cc4ccccc4)C(=O)[C@@H]32)cc1	0.0&-0.4	-2	-2.4	3.2%	nt	-5
14	Cc1ccc(NC(=O)c2sc3ncn(CC(=O)N4CCN(c5ccccn5)CC4)c(=O)c3c2C)cc1Cl	0.1	-23	1.0	8.3%	nt	5
15	C[C@H](NC(=O)c1ncn2c1C(=O)N[C@@H](C)C2)C(=O)OC(C)(C)C	-0.8	2	-4.7	0.4%	-11	-27
16	CC(C)(C)OC(=O)C[C@@H]1C/C=C\C[C@@H](CC(=O)N(CCO)Cc2ccccc2)C(=O)N2CCC[C@H]2COC1=O	-0.1	0	0.3	-0.3%	3	-5
17	CC(C)(C)c1ccc(S(=O)(=O)NCCN2CCOCC2)cc1	0.0	-1	0.9	1.5%	0	3
18	Cc1ccc(NC(=O)CCc2c(C)nn(-c3ccc(N4CCCCC4)nn3)c2C)cc1F	1.3&2.4	-3	0.1	1.5%&1.3%	-13	-2&-12
19	COc1ccc(-c2csc(NC(=O)CSc3nc(SC)ns3)n2)cc1	2.1	-5	-2.4	1.3%	nt	-3
20	Cc1ccc(CN(Cc2cc3cccc(C)c3[nH]c2=O)C(=O)N(C)C)cc1	3.6	-3	-3.4	4.7%	1	-16
21	O=C(c1ccco1)N1CCN(C(=O)c2ccc(CS(=O)c3ccc(Cl)cc3)o2)CC1 (stereo unspecified)	0.0	6	0.0	-0.4%	2	3
22	CSc1nc(N)n2nc(C)cc2n1	-0.5	-89*	3.9	-0.4%	-92*	nt
23	O=C1c2[nH]nc(-c3ccccc3O)c2C(c2cccc(O)c2)N1Cc1ccncc1 (stereo unspecified)	-0.7	nt	nt	0.4%	nt	-4
24	CCN1CCN(CC(O)COCC2COc3ccccc3O2)CC1 (stereo unspecified)	0.0	6	2.7	0.4%	2	1

no.	SMILES	TRPML1 agonist	Six1-Eya2 inh	D2 agonist	PINK1 expr mod	CtBP-E1A inh	TRPML1 blocker
25	CCOc1cc(C2NC(=O)N(C)C(C)=C2C(=O)OC)cc(Br)c1O (stereo unspecified)	2.6	1	0.0	0.8%	-2	12
26	CC(=O)SC(C)CC(=O)Nc1ccccc1 (stereo unspecified)	-0.1	-2	-7.4	1.9%	6	20
27	Cc1nn(C)c(-c2n[nH]c(=S)n2-c2ccccc2)c1Cl	-0.6	-5	2.1	0.2%	4	-6
28	COc1ccc(NC(=O)c2ccccc2NS(=O)(=O)c2ccc(C)cc2)c([N+](=O)[O-])c1	-0.5	-24	-0.5	0.8%	0	0
29	CCC(OC(=O)C(NC(=O)c1ccccc1)c1ccccc1)C(=O)Nc1cc(C)on1 (stereo unspecified)	2.3	1	-0.8	nt	5	13
30	CC(=O)c1c(CC(=O)O)[nH]n(-c2nc3ccccc3s2)c1=O	0.1	0	-3.9	?	2	-5
31	COc1cc(C(=O)Nc2ccc(NC(=O)c3cccc(Cl)c3)nc2)cc(OC)c1OC	2.4	-1	5.8	5.1%	-14	38
32	CC(C)(C)C(=O)Nc1sc2c(c1-c1nc3ccccc3[nH]1)CCCC2	-0.5	1	0.6	14%[38.3 µM]	8	38
33	COC(=O)C1=C(C(=O)OC)[C@@H]2N(C)c3ccccc3[C@@]23C[C@@H](CO)N(C(=O)NCCBr)C3=N1	0.0	-21	-4.1	0.3%	-18	45
34	CCNC(=O)C1(C)CCN(Cc2ccc(C#N)cc2)C1 (stereo unspecified)	-0.1	2	-4.5	2.7%	2	nt
35	COc1ccc(S(=O)(=O)n2nc(OC(=O)c3ccncc3)cc2N)cc1	-0.4	4	-3.7	0.8%	-6	33
36	COc1ccccc1C(=O)NC(=O)CSc1cccc[n+]1[O-]	-0.5	-4	-6.1	-1.6%	1	-10

Six1-Eya2 inh: hit marks shown above.
cpd | canonical_smiles | Six1-Eya2 inh | D2 agonist | PINK1 expr mod | CtBP-E1A inh | TRPML1 blocker
6 | Cc1ccccc1S(=O)(=O)NNC(=O)C(=O)NNc1ccccn1 | -82* | 0.4 | 0.5% | -71* | 30
22 | CSc1nc(N)n2nc(C)cc2n1 | -89* | 3.9 | -0.4% | -92* | nt

(listing goes on)
no.	SMILES	TRPML1 agonist	Six1-Eya2 inh	D2 agonist	PINK1 expr mod	CtBP-E1A inh	TRPML1 blocker
37	CCOC(=O)C1CCN(C(=O)COC(=O)c2ccc3[nH]c4c(c3c2)CCCC4)CC1	-0.4	-18	-2.5	3.0%	-13	6
38	COc1ccc(C(C(=O)NC2CCCC2)N(C(=O)c2snc(-c3ccc(F)cc3)c2N)c2ccc(F)cc2)cc1 (stereo unspecified)	-0.5	1	-3.9	16µM*	1	-4
39	O=C(Nc1ccc(F)cc1)C(Sc1nc2ccccc2[nH]1)c1ccccc1 (stereo unspecified)	3.7	1	-0.5	5.1%	1	7
40	Nc1nnc(CC(=O)N/N=C\c2cc([N+](=O)[O-])ccc2O)s1	-0.4	-92*	1.4	6.4%	-91*	7
41	C/C(=N/Nc1ncc(Br)cn1)c1ccc(Br)cc1	0.6	2	-0.2	4.8%	7	8
42	CCOc1ccccc1OCCNC1CCCC1	0.4	6	-2.7	0.9%	nt	15
43	Cc1cccc(NC(=O)N2CCCC2C(=O)NCc2ccccc2)c1 (stereo unspecified)	-0.7	7	7.8	-0.5%	nt	36
44	Cc1ccc(NC(=O)CC2C(=O)OCC3CCCCN32)cc1Cl (stereo unspecified)	-0.8	3	8.5	1.2%	nt	-2
45	O=C(CSc1nc(-c2ccccc2)cc(=O)[nH]1)Nc1ccccc1F	2.0&2.3	-2	-2.9	3.0%&-3.5%	4	15&-1
46	COCc1cc(C)nc(SCC(=O)Nc2cccc(C)c2)c1C#N	-0.3	2	-2.4	0.1%	1	0
47	CC1CC(C)CN(CC(=O)NNC(=O)COc2ccc(Cl)cc2)C1 (stereo unspecified)	-1.1	-2	-2.9	0.8%	nt	-20
48	Cc1ccc2cc(/C=N/NC(=O)c3ccccc3[N+](=O)[O-])c(Cl)nc2c1	0.0	1	-1.5	0.6%	4	8

no.	SMILES	TRPML1 agonist	Six1-Eya2 inh	D2 agonist	PINK1 expr mod	CtBP-E1A inh	TRPML1 blocker
49	C[C@H](CO)N1C[C@H](C)[C@H](CN(C)Cc2ccncc2)Oc2cc(-c3ccccc3F)ccc2S1(=O)=O	-0.5	-3	-2.1	0.2%	6	5
50	Cc1ccsc1C(=O)NNC(=O)C1CC=CCC1C(=O)O (stereo unspecified)	-0.5	-11	-1.9	0.6%	-6	3
51	CCN(Cc1ccc2c(c1)OCCO2)C(=O)CN1C(=O)NC2(CCc3ccccc32)C1=O (stereo unspecified)	1.3	1	-1.2	1.8%	2	-2
52	O=C1CC(c2ccc(Cl)cc2)CC(O)=C1C=NCCO (stereo unspecified)	-0.7	-6	-4.9	0.7%	2	15
53	O=C(Nc1ccccc1C(=O)N1CCCCCC1)c1cccc([N+](=O)[O-])c1	-0.7	4	-3.6	-0.4%	-4	4
54	CC(C)N(Cc1nc(-c2ccccc2)no1)C(=O)CSc1ccccc1	4.5	3	-3.7	-1.6%[38.3 µM]	0	7
55	CC(C)c1nnc(SCC(=O)N2CCN(C(=O)c3ccco3)CC2)n1N	1.0	7	3.4	7.1%	5	2
56	COCc1ccc(CN2CCC(n3nccc3NC(=O)CCOc3ccccc3)CC2)o1	1.1	4	-3.6	-1.4%	0	7
57	COc1cc(/C=C/C=C2/CC/C(=C/C=C/c3ccc(O)c(OC)c3)C2=O)ccc1O	?	?	-5.0	-0.1%	-1	5
58	CCOc1cccc(N2C(=O)CC(NNC(=O)c3ccc(Br)o3)C2=O)c1 (stereo unspecified)	-0.3	7	-2.0	-0.4%	8	-8
59	CCOC(=O)N1CCN(c2c(N3CCN(c4ccccc4OC)CC3)c(=O)c2=O)CC1	-0.3	9	-5.4	2.0%	-4	7
60	Cc1cc(NC(=O)NC(=O)c2ccccc2NC(=O)CN(C)C)ccc1Oc1ncc(Br)cn1	1.6	-12	5.2	21%	7	26
61	COc1cc(OC)cc(-c2cc3nc(C)c(CCC(=O)Nc4ccc(C(C)=O)cc4)c(C)n3n2)c1	-0.1	nt	nt	-0.8%	nt	10
62	O=C(COC(=O)c1cccc(Cl)c1)Nc1ccc2[nH]c(=O)[nH]c2c1	-0.1	-3	-0.9	0.0%	3	25
63	CCCCc1nnc(NC(=O)c2ccc(N3CCCC3=O)cc2)s1	-0.3	10	-0.9	-2.5%	-17	-16
